TsaE inh = qHTS Assay for Inhibitors of YjeE | tRNA threonylcarbamoyladenosine biosynthesis protein TsaE (Escherichia coli (strain … | purified YjeE, fluorescence polarisation of a bound ADP probe | Potency, µM | actives 0.05% (n = 71,000) | AID 605, 2007; active = well fitted falling curve; inconclusive = weaker or top-dose-only fall, or a rising curve; inactive = flat or poorly fitted curve;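 also: top concentration of the series not given in the record; excess ADP was the control for the full effect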
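Purified YjeE (10 uM) with BODIPY Texas Red-labeled ADP probe (2 uM); compounds pin-transferred, 15 min at room temperature. Binding inhibition read as decreased fluorescence polarization; ADP titration as control.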
Bst PK mod = Pyruvate Kinase | partly purified Bacillus stearothermophilus pyruvate kinase, luminescence ATP production; ribose 5-phosphate activator present at AC10 | Potency, µM | actives 1.2% (n = 51,000) | AID 361, 2006; in the data active means potency below about 11 µM; inconclusive means mostly about 12 µM to 25 µM; inactive means weaker than that;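 the screen sought inhibitors and activators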;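 also: potency is read from the fitted curve at half-maximal effect; scaled between full activation by ribose 5 phosphate and full inhibition by luteolin; about four in five hits inhibit and the cells do not say which; series up to 57 µM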
Active calls of the source: *; i = inactive; ? = inconclusive; . = not tested or not shown.

compound | TsaE inh | Bst PK mod
CCCn1c(N2CCN(CC(=O)NCc3cccs3)CC2)nc2ccccc21 | i | >57
CCSC[C@@H](N)C(=O)O | i | .
CCSc1nc2c(c(=O)[nH]1)C(c1ccccn1)C1=C(CC(C)(C)CC1=O)N2 (stereo not drawn) | i | >57
CCC(=O)N1CCc2cc(S(=O)(=O)N(CC)c3cccc(C)c3)ccc21 | i | >57
COc1ccc(-c2nnnn2CCc2ccccc2)cc1 | i | >57
Cc1nonc1NC(=O)OCCN1CCOC1=O | i | >57
CC1CCCCN1CCNC(=O)Cn1nc(-c2ccccc2)ccc1=O (stereo not drawn) | i | >57
COc1ccc(NC(=O)CN2CCCCC2)cc1 | i | >57
Cn1c(=O)cc(NCCc2ccccc2)[nH]c1=O | i | .
COC(=O)Cn1c2ccccc2c2nc(C)sc21 | i | >57
CC(=O)c1c(C(C)=O)c(C)n(-c2nc(-c3ccccc3)c(C)s2)c1C | i | .
O=C(NC1c2ccccc2-c2ccccc21)c1ccco1 | i | >57
CCC(NC(=O)NCc1cccnc1)(C(F)(F)F)C(F)(F)F | i | >57
CC(C)N1CCN(c2ccncc2S(=O)(=O)N2CCCCC2)CC1 | i | .
C=C(Br)Cn1c(CCCC)nc2ccccc21 | . | >26
CCc1ccc(NC(=O)C2CC(=O)N(C(C)C)C2)cc1 (stereo not drawn) | i | >57
COP(C)(=O)c1c(C)nn(-c2ccccc2)c1C (stereo not drawn) | i | >57
COc1ccc(OC)c(NC(=O)CN2C(=O)C3(OCCCO3)c3ccccc32)c1 | i | >57
CCC(CC)C(=O)NCCc1cc2ccc(C)c(C)c2[nH]c1=O | i | .
COc1ccc(C2=NOC(C(=O)NCCCN3CCOCC3)C2)cc1 (stereo not drawn) | i | >57
COC(=O)c1nc(NC(C)=O)n[nH]1 | i | >57
Cc1ccnc(NC(=O)c2c(O)c3ccccc3n(C)c2=O)c1 | i | >57
S=C(Nc1ccccc1)Nc1ccccc1C#Cc1ccccc1 | i | .
O=c1[nH]c(SCC2CCCCO2)nc2ccccc12 (stereo not drawn) | i | .
COc1cc(C2CC(=O)N3CN(Cc4ccco4)CSC3=C2C#N)ccc1OCc1ccccc1 (stereo not drawn) | i | .
CC(C)n1c(C(O)c2ccccc2)nc2ccccc21 (stereo not drawn) | i | .
O=C(Cn1c(=O)[nH]c2ccsc2c1=O)NC1CCCCCC1 | i | >57
CC1CCCCC1NC(=O)CSc1nnnn1-c1ccccc1 (stereo not drawn) | i | >57
CCOc1ccc(/C(O)=C2/C(=O)C(=O)N(CCOCCO)C2c2ccccn2)cc1 (stereo not drawn) | i | >57
COc1ccc(-c2ccc(-c3noc(-c4cccs4)n3)c(OC)n2)cc1 | i | >57
O=C(CSc1nnc(Cc2ccccc2)o1)N1CCOCC1 | i | >57
O=c1[nH]c(C(F)(F)F)nc2ccccc12 | i | >57
CCn1c(Cn2nnc(-c3ccccc3)n2)nnc1SCC(=O)Nc1ccccc1 | i | >57
COc1ccc(Cn2c(O)cc(=O)[nH]c2=O)cc1 | . | >26
Cc1noc(C)c1CSc1nc2ccccc2[nH]1 | i | >57
COc1ccc(C(C#N)N2CCCCCC2)cc1OC (stereo not drawn) | i | >57
COc1ccc(N2CC(C)Cn3c2nc2c3c(=O)n(CCN3CCOCC3)c(=O)n2C)cc1 (stereo not drawn) | i | >57
O=S(=O)(NCc1csc(-c2cccnc2)n1)c1ccc2c(c1)OCCO2 | i | >57
CCC(C)NC(=O)c1c(N)n(/N=C/c2cccnc2)c2nc3ccccc3nc12 (stereo not drawn) | i | >57
CCN(CC)c1ccc(NC(=O)C(C)C)cc1 | i | >57

Random excerpt: 3 entries already listed.
compound | TsaE inh | Bst PK mod
CC1CCCCC1NC(=O)CSc1nnnn1-c1ccccc1 (stereo not drawn) | i | >57
COc1cc(C2CC(=O)N3CN(Cc4ccco4)CSC3=C2C#N)ccc1OCc1ccccc1 (stereo not drawn) | i | .
O=C(CSc1nnc(Cc2ccccc2)o1)N1CCOCC1 | i | >57

(more compounds)
compound | TsaE inh | Bst PK mod
Cc1oc2c(C)c3oc(=O)c4c(c3cc2c1C)CCCC4 | i | .
COc1ccc(C(=O)N2CCN(C(=O)CC(C)C)CC2)cc1OC | i | .
Clc1ccc(CN2C3=NCCCN3c3ccccc32)cc1 | i | >57
Cc1nnc(SCc2nnc(-c3ccccc3)o2)n(N)c1=O | i | >57
C[C@@H](C1=C(CCN(C)C)Cc2ccccc21)c1ccccn1 | i | .
Fc1ccc(Br)cc1C1C=C(c2cccnc2)Nc2ncnn21 (stereo not drawn) | i | .
CN1C(=O)c2oc3ccccc3c(=O)c2C1c1ccccn1 (stereo not drawn) | i | ?
CCOC(=O)C(C)C(C)=O (stereo not drawn) | i | .
Cc1ccc(-c2noc(CN3C(C)CCCC3C)n2)cc1 (stereo not drawn) | i | .
CCn1ccc(C(=O)Nc2ccc(N(C)C(C)=O)cc2)n1 | i | >57
Cc1noc(C)c1C(=O)N1CCC2(CCCN(C(=O)Nc3cccc(C#N)c3)C2)CC1 | i | .
CNc1nc(N)c(C(=O)C(C)(C)C)s1 | i | >57
Cn1c(SCC(=O)NC2CCCC2)nnc1-c1ccc(S(=O)(=O)N2CCOCC2)cc1 | i | >57
COCC(=O)Nc1nc(-c2ccccc2)c(C)s1 | i | >57
O=C(CN(Cc1cccs1)C(=O)CNS(=O)(=O)c1ccccc1)NCc1ccco1 | i | >57
Cn1c(NCCN2CCCCC2)cc(=O)n(C)c1=O | . | >26
N#Cc1nc(-c2cccs2)oc1N1CCOCC1 | i | .
Cn1c(=O)c2c(nc(NC3CCCCC3)n2CC(O)COc2ccccc2)n(C)c1=O (stereo not drawn) | i | >57
COc1ccc(-c2nc3cnc(N4CCN(C)CC4)nc3n(CCC#N)c2=O)cc1 | i | .
OCCNCc1ccc(OC2CCCC2)cc1 | i | >57

Whole records from above. Values in the order: TsaE inh	Bst PK mod
Cn1c(SCC(=O)NC2CCCC2)nnc1-c1ccc(S(=O)(=O)N2CCOCC2)cc1 across the screens: i	>57
Cn1c(=O)c2c(nc(NC3CCCCC3)n2CC(O)COc2ccccc2)n(C)c1=O (stereo not drawn) across the screens: i	>57
Cc1nnc(SCc2nnc(-c3ccccc3)o2)n(N)c1=O across the screens: i	>57
N#Cc1nc(-c2cccs2)oc1N1CCOCC1 across the screens: i	.

Later entries.
compound | TsaE inh | Bst PK mod
O=C(O)c1cc(S(=O)(=O)N2CCCCC2)ccc1F | i | >57
O=C(C1CCCN(S(=O)(=O)c2ccc(F)cc2)C1)N(Cc1cccs1)C1CC1 (stereo not drawn) | i | ?
CCCCn1c(SCC(=O)N2CCN(c3ccccc3)CC2)nc2ccsc2c1=O | i | >57
O=C(CN1CCOc2ccccc21)NC1CC1 | i | .
CC(=O)c1cccc(NC(=O)NCc2cccs2)c1 | i | >57
CCOC(=O)C1=C(CC)Nc2ccccc2N=C1NC(=O)c1cccc(S(=O)(=O)N2CCCC2)c1 | i | >57
Cc1oc(C)c2c(=O)ccc3c(c12)OC(N)=C(C#N)C3c1ccccc1Cl (stereo not drawn) | i | >57
C=CCn1c2ccccc2c2nnc(SCN3C(=O)c4ccccc4C3=O)nc21 | i | .
C[C@@H]1C[C@H]2[C@@H]3CCC4=CC(=O)C=C[C@]4(C)[C@@]3(F)[C@@H](O)C[C@]2(C)[C@@]1(O)C(=O)CO | i | .
CN(C)CCCN1C(=O)C(=O)/C(=C(/O)c2ccncc2)C1c1cccnc1 (stereo not drawn) | i | >57
CCn1cc(C(=O)NCCCN2CC(C)CC(C)C2)c(=O)c2cc(S(=O)(=O)N(C)C)ccc21 (stereo not drawn) | i | .
COc1ccccc1-n1c(SCC(N)=O)nnc1-c1ccc(S(=O)(=O)N2CCCCC2)cc1 | i | >57
CCOc1ccc(NC(=O)CCN2CCN(c3ccccc3OC)CC2)cc1 | i | >57
O=c1c2c(nc3n1CCCCC3)sc1c(O)cccc12 | i | ?
CCC#CCOCC(=O)Nc1ccccc1 | i | .
O=C(c1cc(-c2ccco2)on1)N1CCc2ccccc2C1 | i | >57
C=C(C)[C@H]1CC=C(C)C(=O)C1 | i | .
O=C(NC[C@H]1CCCCN1)c1cc(OCC(F)(F)F)ccc1OCC(F)(F)F | i | .
Nc1nc(CC(=O)O)cs1 | i | .
O=C(O)c1ncn(Cc2ccccc2)c1C(=O)O | i | i
CCCN1Cc2cccc(C(=O)Nc3ccc4c(c3)OCCO4)c2C1=O | i | .
CCOC(=O)N1CCN(CC(O)c2ccc3cc[nH]c3c2)CC1 (stereo not drawn) | i | .
O=C(O)c1cc2c(cc1S(=O)(=O)O)[C@H]1[C@@H]([C@H]3[C@H]2[C@@]2(Cl)C(Cl)=C(Cl)[C@]3(Cl)C2(Cl)Cl)[C@]2(Cl)C(Cl)=C(Cl)[C@@]1(Cl)C2(Cl)Cl | i | .
COC(=O)c1c(C(=O)OC)c2cc(C)ccn2c1Cl | i | .
CC1CCCCC1NC(=O)CSc1nnc(CN2CCOCC2)n1C (stereo not drawn) | i | >57
COc1ccc2cc(S(=O)(=O)N3CCCCC3)ccc2c1S(=O)(=O)N1CCCCC1 | i | >57
CCCOc1ccccc1C1CC(=O)Nc2cc3c(cc21)OCCO3 (stereo not drawn) | i | .
c1ccc(-c2oc3ncnc(N4CCOCC4)c3c2-c2ccccc2)cc1 | i | >57
CCNc1ccccc1 | i | .
COCCOC(=O)C1=C(C)N=C2SCCC(=O)N2C1/C=C/c1ccccc1 (stereo not drawn) | i | >57
CC(NC(=O)CC1Nc2ccccc2NC1=O)c1ccccc1 (stereo not drawn) | i | >57
O=C(CNC(=O)c1ccco1)OCc1ccc(Cl)cc1 | i | .
N=C(N)SCCN1CCCCC1 | i | .
Cc1nc2sc(C(c3cccs3)N3CCC(C(N)=O)CC3)c(O)n2n1 (stereo not drawn) | i | .
COc1ccc(CNc2ncncc2-c2cccnc2)c(OC)c1 | i | .
CNc1ccnc(-c2ccccc2C(F)(F)F)n1 | i | .
CCN1C(=O)CC(Sc2ccccc2N)C1=O (stereo not drawn) | i | >57
Cc1ccc(CCN2CC(C(=O)NCc3cccnc3)CC2=O)cc1 (stereo not drawn) | i | .
CC(C(=O)N1c2ccc(F)cc2CCC1C)N1C(=O)c2ccccc2C1=O (stereo not drawn) | i | >57
COc1ccc(C(=O)Nc2ccc(S(=O)(=O)Nc3onc(C)c3C)cc2)cc1 | i | >57
CC(=O)Nc1ccccc1C(=O)N1CC2(C)CC1CC(C)(C)C2 (stereo not drawn) | i | >57
CCOC(=O)Cn1c(=O)oc2cc(S(=O)(=O)NCCc3ccc(OCC)c(OCC)c3)ccc21 | i | >57
O=C(C[C@@H](C(=O)O)N1CCOCC1)c1ccccc1 | i | .
CC(C)OC(=O)CSc1nnnn1-c1ccc2c(c1)OCCO2 | i | >57
Cc1cc(C)n(-c2nc3ccccc3nc2Nc2ccc3c(c2)OCO3)n1 | i | .
O=C(O)CNCC1COc2ccccc2O1 (stereo not drawn) | i | >57
O=C(CCNS(=O)(=O)c1cccs1)N1CCCCCC1 | i | >57
COc1ccc(C(=O)NCc2nnc(SCC(=O)NCc3ccc(F)cc3)o2)cc1 | i | >57
COc1ccc(N2CC(=O)N(c3ccc(OC)c(OC)c3)CC2=O)cc1OC | . | >26
Cc1cccc(OCC(=O)NCc2ccncc2)c1C | i | .
CC(=O)N1CCc2c(sc(NC(=O)C3CC3)c2-c2nc3ccccc3s2)C1 | i | .
c1ccc2c(c1)CCN2CCN1CCc2ccccc21 | i | .
COc1ccc(C(=O)Nc2ccc(C)cn2)c(OC)c1 | i | 0.33*
Cc1cccc(C)c1OCC(=O)NCc1nnc(SCC(=O)NC2CCCCC2C)n1C (stereo not drawn) | i | >57
Cc1c(NC(=O)CCC2CCCCC2)c(=O)n(-c2ccccc2)n1C | i | >57
CN(C)S(=O)(=O)Nc1ccc(C(=O)O)cc1 | i | >57
CC1CCCC(C)N1C(=O)CSc1nnnn1Cc1ccccc1 (stereo not drawn) | i | >57
CN1CCN(CCCNC(=O)CCCOc2cc(=O)n(C)c3ccccc23)CC1 | i | >57
CC(NC(=O)C(C)(C)C)c1nc2ccccc2n1C (stereo not drawn) | i | >57
C=CCSc1nnc2c(n1)OC(c1cccnc1)Nc1ccccc1-2 (stereo not drawn) | i | .

(more compounds)
compound | TsaE inh | Bst PK mod
CCc1nc(N2CCCC2)c(C#N)c2c1CCCC2 | . | >26
Cc1[nH]nc2cn[nH]c12 | . | >26
Cc1ccccc1NS(=O)(=O)c1ccc(OCC(=O)N2CCCC2)cc1 | i | >57
CN(Cc1c(O)ccc2c1oc(=O)c1ccccc12)C1CCCCC1 | . | i
CCCCOCCCn1cnc2c([nH]c3cc(OC)ccc32)c1=O | i | >57
C[C@@H]1CCC[C@H](C)N1NC(=O)c1ccc(Cl)c(S(N)(=O)=O)c1 | i | >11
O=C(COc1ccc2ccccc2c1Br)N1CCOCC1 | i | >57
COc1ccc(CCNC(=O)c2ccc(CNc3c(N4CCOCC4)c(=O)c3=O)cc2)cc1OC | i | >57
O=C(Nc1nc(-c2cc3ccccc3oc2=O)cs1)c1ccco1 | i | .
O=C(c1ccc(F)cc1)N1CCC(N2CCCCCC2)CC1 | . | >26

This is a subset; rates above refer to the full screens.
